NS1 function inh – influenza NS1 inhibition; S. cerevisiae slowed by influenza A NS1, growth recovery by OD600; Potency, µM (titrated, usually from 46.1 µM), inactives show at the top dose activity, positive = more growth; hit rate 0.4% among 270,000; active means well fitted rising curve with a large enough effect; inconclusive means small, poorly fitted or top-dose-only effect; inactive means no such curve, though single readings can be large or run the other way; note: nearly all actives have a fitted effect of over 50% in size
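Compounds were scored for reversing the slow growth caused by influenza A NS1 in S. cerevisiae, measured by optical density at 600 nm. Assay medium contained 2% galactose at pH 6.0; NS1-free yeast of the same strain were the positive control.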
Cruzain noTriton – blocks cruzain activity in detergent-free assay. P25779. purified cruzain, Z-FR-AMC fluorescence, no detergent. Potency, µM, without a hit: max response, negative = inhibition, hits mostly inhibitors. hit rate 2.3% among 200,000. AID 1476;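 note: plate controls were enzyme without inhibitor for no effect and buffer without enzyme for full effect; nearly all actives have a fitted effect of over 40% in size; top concentration of the series not given in the record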
Target sequence (P25779 123-467 limits assumed): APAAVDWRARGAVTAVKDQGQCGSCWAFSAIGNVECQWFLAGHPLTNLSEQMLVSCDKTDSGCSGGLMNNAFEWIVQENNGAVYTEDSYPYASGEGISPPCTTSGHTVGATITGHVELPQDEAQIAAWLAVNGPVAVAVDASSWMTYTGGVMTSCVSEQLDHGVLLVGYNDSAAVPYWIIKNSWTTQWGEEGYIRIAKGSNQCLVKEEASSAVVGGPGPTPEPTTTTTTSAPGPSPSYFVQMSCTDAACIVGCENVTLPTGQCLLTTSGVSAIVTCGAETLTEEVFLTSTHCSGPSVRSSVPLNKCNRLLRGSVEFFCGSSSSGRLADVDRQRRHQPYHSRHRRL
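Detergent-free condition (0.00005% Triton X-100) in acetate buffer pH 5.5 with DTT. 1.5 nM enzyme and compound were pre-mixed 15 min, then 2 uM Z-FR-AMC substrate added; reaction progress from fluorescence change between first and third reads (60 s).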
RE007 growth inh – less growth of the S. pombe RE007 Vpr strain; S. pombe RE007 Vpr strain, BacTiter-Glo ATP luminescence, 24 h; control for the full effect not named in the record; Potency, µM (top dose mostly 92.2 µM), without a hit: at the top dose activity change, negative = less growth; hit rate 0.21% among 360,000; AID 651644; active = well fitted falling curve with a large enough effect; inconclusive = small, poorly fitted or top-dose-only effect; inactive = no such curve, though single readings can be large or run the other way;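 note: % is set by controls: 0 for no effect and ±100 for the full control effect; nearly all actives have a fitted effect of over 50% in size; the assay follows cell death caused by Vpr and the record does not say whether a fall means rescue or toxicity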
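Fission yeast strain RE007, carrying one chromosomally integrated HIV-1 vpr copy, was seeded at OD 0.01 in PMG+AL medium with 23 nL pinned compound. After 24 h at 30 °C and 99% humidity, viability was read by BacTiter-Glo luminescence.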
MARV entry inh – inhibitors of Marburg virus binding or cell entry | Marburg virus pseudotyped entry inhibition, cell reporter; control for the full effect not named in the record; about a third of the inactives were read at about 46 µM | hit rate 1.8% among 300,000 | Potency, µM (doses to about 37.8 µM), for the others: at the top dose activity change, negative = inhibition, most hits filed as inhibitors; active = well fitted inhibition curve with a large enough effect; inconclusive = small, poorly fitted or top-dose-only effect, or effect the other way; inactive = flat fitted curve, though single readings scatter; tested in HEK293 cells; about a fifth of its hits are not listed in these tables; note: % is set by controls: 0 for no effect and ±100 for the full control effect; luciferase read-out
Lassa entry inh – blocks Lassa virus binding to or entry into cells | Lassa virus pseudotype entry inhibition, cell reporter; control for the full effect not named in the record | Potency, µM (highest dose often 37.9 µM), for inactives: at the highest dose activity change, negative = inhibition, most hits filed as inhibitors | hit rate 1.2% among 300,000; active means well fitted inhibition curve with a large enough effect; inconclusive means small, poorly fitted or top-dose-only effect, or effect the other way; inactive means flat fitted curve, though single readings scatter; tested in HEK293 cells; note: % is set by controls: 0 for no effect and ±100 for the full control effect; nearly all actives have a fitted effect of over 50% in size; luciferase read-out
SARS PLpro yeast – inhibitors of SARS-CoV papain-like protease in yeast | S. cerevisiae expressing SARS-CoV PLpro, growth rescue; control for the full effect not named in the record | Potency, µM (series often up to 32.9 µM), for the others: at the highest dose activity, positive = growth rescue | hit rate 0.19% among 330,000 | AID 485353; active means well fitted rising curve with a large enough effect; inconclusive means small, poorly fitted or top-dose-only effect; inactive means no such curve, though single readings can be large or run the other way; note: 0% is about no effect; nearly all actives have a fitted effect of over 55% in size; growth read by luminescence after 48 h
Cruzain Triton – blocks cruzain activity in presence of Triton detergent | P25779 | purified cruzain, Z-FR-AMC fluorescence, 0.01% Triton | Potency, µM, for the others: max response, negative = inhibition, actives largely listed as inhibitors | hit rate 0.43% among 200,000;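 note: plate controls were neutral wells for no effect and buffer without enzyme for full effect; nearly all actives have a fitted effect of over 40% in size; top concentration of the series not given in the record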
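Cysteine protease activity tested under reducing, mildly acidic conditions (100 mM sodium acetate pH 5.5, 5 mM DTT) plus 0.01% Triton X-100. Cruzain 1.5 nM; substrate Z-FR-AMC 2 uM; 15 min compound preincubation at room temperature.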
StopGo reporter – lowers the luciferase signal of an FMDV 2A StopGo reporter; human cells with a luciferase reporter of 2A StopGo recoding; control for the full effect not named in the record; Potency, µM (top dose mostly 57.9 µM), inactives show at the top dose signal change, negative = less light; hit rate 1.2% among 410,000; AID 1159524; active = well fitted falling curve with a large enough effect; inconclusive = small, poorly fitted or top-dose-only effect; inactive = no such curve, though single readings can be large or run the other way; tested in HEK293T cells; note: % is set by controls: 0 for no effect and ±100 for the full control effect; nearly all actives have a fitted effect of over 45% in size; luciferase light after 4 h
* hit, by the source's call; ? = inconclusive; . = no result given; & = joins results of further samples; [ ] = remark or other dose. Unless noted, calls come from the whole dose curve; as a rule, active = well fitted curve in the direction sought with a large enough effect; inconclusive = small, poorly fitted or top-dose-only effect, or another doubt; inactive = no such curve, though single readings can be large; an effect the other way counts as inactive or inconclusive. Potency is the fitted concentration of half-maximal effect.

SMILES	NS1 function inh	Cruzain noTriton	RE007 growth inh	MARV entry inh	Lassa entry inh	SARS PLpro yeast	Cruzain Triton	StopGo reporter
COc1ccc(CCNC(=O)Cn2nnc(-c3ccc(Cl)cc3)n2)cc1OC	.	-2%	.	.	-10%[46.1 µM]	.	5.5%	-10%
COCCCNC(=O)C1=CCN(S(=O)(=O)c2ccc(OC)cc2)CC1	2%	.	13%	.	.	-4%	.	-13%
Cc1ccc(S(=O)(=O)Nc2ccc3cc([N+](=O)[O-])ccc3c2[N+](=O)[O-])cc1	.	.	?	?	?	.	.	-10%
CCCCNc1nnc(SCC(=O)c2c[nH]c3ccccc23)s1	24%	?	0%	?	?	-15%	-15%	-24%
CCc1ccc(OC(=O)CSc2nnc(-c3ccc(OC)c(OC)c3)o2)cc1	.	-27%	.	-3%[46.1 µM]	6%[46.1 µM]	.	-4.9%	2%
Cc1cc(C)nc(NC(=O)c2cc(-c3ccc(C)s3)nc3ccccc23)c1	?	?	-23%	-24%	0%	-1%	-4.7%	?
CCCCCCOC(=O)C(C#N)c1nc2ccccc2nc1N1CCCCC1 (stereo not drawn)	-5%	25µM*	4%	?	-24%	1%	-2.1%	25%
COc1ccc(CCNC(=O)CSc2ccccc2)cc1OC	-3%	6%	-3%	-4%	-8%	-15%	2.3%	-9%
CC(=O)Nc1ccc2nc(NC(=O)CN3CCOCC3)sc2c1	-1%	.	-12%	.	.	2%	.	7%
CC1CCC(NC(=O)c2ccc(-n3cncn3)c([N+](=O)[O-])c2)CC1 (stereo not drawn)	.	.	4%	17%	0%	0%	.	35%[activator]
CC1=C(C(=O)Nc2cccnc2)C(c2cccc(F)c2)n2nc(SCc3ccccc3F)nc2N1 (stereo not drawn)	.	6%	.	18%[46.1 µM]	14%[46.1 µM]	.	0.1%	5%
N#CC1=C(N)SC(N)=C(C#N)C1c1ccc([N+](=O)[O-])cc1	7%	-23%	1%	?	3%	1%	-10%	-3%
Cc1cc(C)cc(NC(=O)NCc2nnc(SCc3ccccc3)n2C)c1	-13%	8%	0%	-20%[46.1 µM]	9%	-4%	-1.3%	-15%
CCN(CC)Cc1csc2ccc(Br)cc12	0%	-7%	-3%	1%[46.1 µM]	-7%	-1%	-1.6%	-10%
COc1cc(NC(=O)CSc2nncn2C)cc(OC)c1OC	0%	.	4%	.	.	0%	.	5%
Cc1nc(Nc2ccccc2Br)c2nnn(Cc3ccccc3)c2n1	-4%	.	13%	.	.	-7%	.	-12%
CC(=O)Nc1ccc(S(=O)(=O)NCc2ccc(C(=O)NCCCN3CCC(C)CC3)cc2)cc1	-9%	.	11%	-19%[46.1 µM]	9%[46.1 µM]	1%	.	0%
O=C(CCN1C(=O)/C(=C/c2ccccc2)SC1=S)Nc1ccccn1	7%	.	-8%	.	.	5%	.	-16%
CCCNS(=O)(=O)c1cccc(C(=O)OCc2cc(=O)oc3cc(OC)ccc23)c1	10%	.	-7%	?	?	-4%	.	28%
COc1ccc(COc2cc(-c3cccc(OC)c3)nc3ccc(NC(=O)c4ccc(OC)cc4)cc23)cc1	?	7.9µM*	4%	?	?	4%	2.2%&1.2%	?
CC1(C)SC2C(C(=O)O)N=C(Cc3ccccc3)N2C1C(=O)O (stereo not drawn)	.	.	14%	-5%[46.1 µM]	0%[46.1 µM]	.	.	-12%
CNC(=S)Nc1ccc(C)c(NC(=S)NC)c1	.	.	0%	8%[46.1 µM]	9%	0%	.	-3%
COc1cccc(-c2cc(C(=O)N/N=C/c3ccc(OC)c(COC(C)=O)c3)c3ccccc3n2)c1	?	-16%	13%	-15%	-3%	1%	4.8%	-17%
COc1ccccc1CCNC(=O)c1c(C)nn(CC(C)C)c1Cl	-10%	.	-5%	?	2%[46.1 µM]	19%	.	-2%
CCc1ccc2oc(-c3cccc(NC(=O)c4ccc(N5CCC(C)CC5)c([N+](=O)[O-])c4)c3)nc2c1	.	?	.	?	12%[46.1 µM]	.	0.7%	-9%
O=C(NC1CCC(CC2CCC(NC(=O)C(Cl)Cl)CC2)CC1)C(Cl)Cl (stereo not drawn)	6%	.	16%	.	.	5%	.	-12%
O=C(Cn1nc(C(F)(F)F)c2c1CCCC2)NCCN1CCOCC1	-4%	6%	4%	7%	12%	9%	1.3%	12%
Cc1[nH][nH]c(=O)c1C(c1ccc(-c2ccc(Cl)c(C(=O)O)c2)o1)c1c(C)[nH][nH]c1=O	3%	.	-28%	9%[46.1 µM]	27%[46.1 µM]	1%	.	7%
CCN1CCC(n2nccc2NC(=O)c2ccccc2Cl)CC1	.	.	0%	?	-4%[46.1 µM]	.	.	9%
CC(=O)Nc1cccc(C(=O)Nc2nc(C)cs2)c1	.	.	-17%	-16%	26%	-1%	.	36%[activator]

In the list so far, these contain an NH in an aromatic ring.
SMILES	NS1 function inh	Cruzain noTriton	RE007 growth inh	MARV entry inh	Lassa entry inh	SARS PLpro yeast	Cruzain Triton	StopGo reporter
CCCCNc1nnc(SCC(=O)c2c[nH]c3ccccc23)s1	24%	?	0%	?	?	-15%	-15%	-24%
Cc1[nH][nH]c(=O)c1C(c1ccc(-c2ccc(Cl)c(C(=O)O)c2)o1)c1c(C)[nH][nH]c1=O	3%	.	-28%	9%[46.1 µM]	27%[46.1 µM]	1%	.	7%

The results go on.
SMILES	NS1 function inh	Cruzain noTriton	RE007 growth inh	MARV entry inh	Lassa entry inh	SARS PLpro yeast	Cruzain Triton	StopGo reporter
Oc1ccc(C[C@H]2CNC(=S)N2CCc2cc(C(F)(F)F)cc(C(F)(F)F)c2)cc1	3%	.	-5%	.	.	0%	.	-3%
COCCCN1C(=O)C(=O)/C(=C(/O)c2ccc(S(=O)(=O)N3CCOCC3)cc2)C1c1ccc(OC)cc1 (stereo not drawn)	-9%	.	2%	-16%[46.1 µM]	-12%[46.1 µM]	12%	.	5%
C=CCn1c(SCC(=O)c2ccccc2)nnc1-c1cc2ccccc2o1	-13%	1%	22%	?	-26%	1%	-6.6%	40µM*
CC1CCN(C(=O)c2ccc(NS(=O)(=O)c3ccccc3)cc2)CC1	6%	.	26%	12%	?	8%	.	20%
CCOC(=O)C1CCCN(CCC(=O)Nc2cccc(C)c2)C1 (stereo not drawn)	-4%	-3%	-4%	5%&5%	-7%	-1%	0.6%	17%&-3%
COc1ccccc1C(=O)NCC(=O)NC1CCCc2ccccc21 (stereo not drawn)	.	.	1%	-13%	-8%	3%	.	8%
CCC12CN3CC(CC)(CN(C1)C3c1cccc(OC)c1O)C2=O (stereo not drawn)	.	-2%	.	-5%[46.1 µM]	-9%[46.1 µM]	.	0.1%	-20%
Cc1nnc2c(NC3CCCC3)nc3ccccc3n12	-10%	.	4%	6%[14.2 µM]	-9%	0%	.	2%
Cc1ccsc1/C=N/n1c(COc2ccccc2)n[nH]c1=S	9%	4%	-1%	?	-22%	14%	-1.9%	-5%
CCOC(=O)c1c(N)sc2c1CCC1C(=O)N(C3CCCCC3)C(=O)C21 (stereo not drawn)	-3%	-12%	-12%	-24%	7%	-13%	-5.7%	-25%
CC(=O)Nc1ccc(S(=O)(=O)NCCc2cn3nc(C)c(C)nc3n2)cc1	-18%	.	-7%	.	.	?	.	3%
N#CCc1nn2c(-c3ccccc3)ccnc2c1C#N	?	.	2%	.	.	1%	.	-13%
Cc1cccc(NC(=S)NC(=O)/C=C/c2ccco2)n1	-71%	-28%	-30%	11%[46.1 µM]	-4%	6%[6.58 µM]	-15%	9%
CC(C)(C)n1nc2c(c1NC(=O)Cc1cccc3ccccc13)CS(=O)(=O)C2	.	.	1%	-23%[46.1 µM]	-6%	3%	.	-3%
CCCCCCCCOC(=O)c1ccc(N)cc1	3%	-4%	28µM*	-15%	-3%	-1%	-13%	1%
Cc1ccccc1OCCSc1nc2ccc(NC(=O)c3ccco3)cc2s1	.	-15%	.	-5%[46.1 µM]	-1%[46.1 µM]	.	-5.0%	-16%
COc1cc(NC(=O)CNC(=O)Cn2ccc3ccccc3c2=O)cc(OC)c1OC	-3%	0%	-13%	0%&22%[46.1 µM]	2%&-1%[46.1 µM]	-5%	1.7%	?
CCOC(=O)C(CCOc1cccc(CC)c1)C(=O)OCC	-57%	4%	-19%	-3%	-4%	-5%	-4.0%	-21%
COc1cc(/C=C/C(=O)OCN2C(=O)c3ccccc3C2=O)ccc1OC(F)F	13%	.	-13%	30%	-5%	?	.	-12%
COc1cccc(O)c1CN1CCCC(C(=O)c2cccc(C(F)(F)F)c2)C1 (stereo not drawn)	0%	.	0%	?	-1%[46.1 µM]	-2%	.	-23%
CC(C)(C)S(=O)(=O)/C(C#N)=N/Nc1ccc(Cl)cc1	.	.	-3%	-16%[46.1 µM]	?	-4%	.	?
CC1CN(C(=S)SCC(=O)c2ccc([N+](=O)[O-])cc2)CC(C)O1 (stereo not drawn)	1%	.	-11%	?	-3%[46.1 µM]	-4%	.	-19%
Cc1cc(NC(=O)c2cccs2)n(-c2nc3ccccc3[nH]2)n1	0%	.	0%	?	11%	1%	.	?
Cc1cc(C)c(NC(=O)CN)c(C)c1	1%	.	1%	?	-11%	0%	.	-7%
CC1CCC2C(=O)N(c3ccc(S(=O)(=O)c4ccccc4)cc3)C(=O)C2C1 (stereo not drawn)	6%	-22%	5%	15%	7%	-1%	-4.6%	-28%
O=Cc1ccc(Oc2ncccn2)cc1	.	.	-6%	0%[46.1 µM]	8%	-2%	.	1%
CCOc1ccc(NC(=O)NC(C)CC)cc1 (stereo not drawn)	.	.	0%	?	11%[46.1 µM]	13%	.	-5%
COc1ccc(NC(=O)CCC(=O)Nc2cc(OC)c(NC(=O)c3cccs3)cc2OC)cc1	-5%	.	1%	2%[46.1 µM]	-21%	1%	.	14%
COc1ccc(OCC(O)CNCCOc2ccccc2OC)c(C(C)(C)C)c1 (stereo not drawn)	4%	.	3%	.	.	2%	.	?
Cc1ccc2cc3cc(C(=O)N4CCN(Cc5ccccc5)CC4)sc3nc2c1	-3%	2%	-12%	20%	0%	-5%	3.8%	17%
Cc1cc(C)cc(N(CC(=O)O)S(=O)(=O)c2c(C)[nH]c(=O)[nH]c2=O)c1	.	.	14%	1%[46.1 µM]	22%	-1%	.	-2%
